Assay outcomes as filed in PubChem.
Vaccinia stage: blocks a specific stage of Vaccinia orthopoxvirus infection, primary screen, cell-based, single point. Vaccinia-infected cells, mCherry/Venus stage reporter fluorescence; hits give low values; some inactives read as strong as hits. activity change (mCherry), % (no concentration beside the values). AID 1053133, 2014. actives 0.01% (n = 89,000);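 active means mCherry past -33% and 40 or more points under the early reporter, replicates agreeing; inconclusive means past -33% without that gap or agreement; tested in A549 cells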;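 further: scaled between vehicle wells and reference inhibitor wells; 23 nL library stock went into each well; one replicate is shown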
Vaccinia stage Venus: further read-out of Vaccinia stage, marked with its call; activity change (Venus), %; measured here: Venus reporter, other viral stage;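 negative = less Venus signal; first of two replicates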
* marks the source's active call; other numbers are inactive results; u = inconclusive; x = no result given. A portion of the library; the hit share may differ from the screen's.

SMILES	Vaccinia stage	Vaccinia stage Venus
C[C@H]1CN([C@@H](C)CO)C(=O)c2cc(C3=CCCCC3)cnc2O[C@@H]1CN(C)C(=O)CN1CCOCC1	5.7	0.6
C=CCN1C(=O)[C@]2(O[C@H](CCO)[C@@H]([Si](C)(C)c3ccc(OC)cc3)[C@@H]2C)c2ccccc21	u	x
Cc1noc(C)c1NC(=O)N(C)C[C@@H]1Oc2ccc(NC(=O)Cc3ccccc3)cc2CC(=O)N([C@@H](C)CO)C[C@@H]1C	3.4	9.9
CCCN(C)C[C@@H]1OCCCC[C@@H](C)Oc2ccc(N(C)C)cc2C(=O)N([C@@H](C)CO)C[C@@H]1C	-6.7	-4.8
C[C@H]1CN([C@@H](C)CO)C(=O)CCCn2nncc2CO[C@H]1CN(C)C(=O)Nc1ccccc1F	5.5	7.5
C[C@H]1CN([C@@H](C)CO)C(=O)c2cc(-c3cncnc3)cnc2O[C@H]1CN(C)Cc1ccncc1	22.0	14.1
O=C(CC1CC1)N1[C@@H]2CN(S(=O)(=O)c3ccccc3)c3ccccc3[C@@H]2[C@@H]1CO	7.8	4.4
O=C(C[C@@H]1C[C@@H]2c3cc(NC(=O)c4cccnc4)ccc3O[C@@H]2[C@@H](CO)O1)NCC1CC1	3.1	4.4
C[C@H](CO)N1C[C@H](C)[C@@H](CN(C)Cc2ccccc2F)Oc2cc(C3=CCCC3)ccc2S1(=O)=O	-14.0	-5.9
CC(C)CC#Cc1cnc2c(c1)C(=O)N([C@H](C)CO)C[C@H](C)[C@@H](CN(C)C(=O)CCN1CCCCC1)O2	-10.8	-9.6
CN(C)C(=O)C[C@@H]1CC[C@H](NC(=O)C2CCOCC2)[C@H](CO)O1	-1.3	-1.0
CCCN(C)C[C@H]1Oc2cc(-c3ccncc3)ccc2S(=O)(=O)N([C@@H](C)CO)C[C@H]1C	9.6	1.3
C[C@@H]1CN([C@H](C)CO)C(=O)c2cc(C#C[C@@H](C)O)cnc2O[C@@H]1CN(C)C(=O)c1ccncc1	22.4	8.7
CN(C)CC(=O)Nc1ccc2c(c1)[C@H]1C[C@@H](CC(=O)N3CCc4ccccc4C3)O[C@@H](CO)[C@H]1O2	-8.1	-9.9
C[C@H](CO)N1C[C@H](C)[C@H](CN(C)Cc2ccc(C(=O)Nc3ccccc3N)cc2)Oc2c(NC(=O)Nc3ccc(F)cc3)cccc2C1=O	15.7	9.5
C[C@@H]1CN([C@@H](C)CO)C(=O)c2cc(NC(=O)Nc3ccc4c(c3)OCO4)ccc2O[C@H]1CN(C)S(=O)(=O)c1cccs1	-1.2	11.8
C[C@@H]1CN([C@@H](C)CO)C(=O)c2cccc(NC(=O)c3nc4ccccc4s3)c2O[C@@H]1CN(C)C(=O)Nc1ccccc1	u	x
O=C(c1cnccn1)N1CC(=O)N2[C@@H](CO)[C@@H](c3ccc(C#CC4CCCCC4)cc3)[C@@H]2C1	-20.6	-13.8
CC(C)C#Cc1cnc2c(c1)C(=O)N([C@H](C)CO)C[C@H](C)[C@@H](CN(C)C(=O)CN1CCOCC1)O2	13.6	12.5
COc1ccc(NC(=O)Nc2ccc3c(c2)C(=O)N([C@@H](C)CO)C[C@@H](C)[C@H](CN(C)S(=O)(=O)c2ccc(C)cc2)O3)cc1	-9.0	-3.9
CCCNC(=O)Nc1ccc2c(c1)OC[C@@H](C)N(C(C)=O)C[C@@H](C)[C@H](OC)CN(C)C2=O	7.4	11.8
N#C[C@H]1[C@@H](c2ccc(-c3ccncc3)cc2)[C@@H](CO)N1C(=O)C1CCCCC1	-4.8	3.7
Cc1cc(C(=O)Nc2cccc3c2O[C@H](CN(C)S(=O)(=O)c2ccccc2)[C@H](C)CN([C@H](C)CO)C3=O)n(C)n1	28.1	7.7
O=C(N[C@@H]1C=C[C@@H](CC(=O)N2CCN(c3ccccc3)CC2)O[C@H]1CO)c1ccccc1	-1.5	2.8
C[C@H]1CN([C@@H](C)CO)C(=O)c2cc(NC(=O)Nc3ccc(C(F)(F)F)cc3)ccc2O[C@H]1CN(C)S(=O)(=O)c1ccc(Cl)cc1	-13.9	-3.9
COc1ccccc1-c1cnc2c(c1)C(=O)N([C@@H](C)CO)C[C@H](C)[C@H](CN(C)Cc1ccc(F)cc1)O2	u	x
COc1ccc(S(=O)(=O)N(C)C[C@H]2OCCCC[C@H](C)Oc3ccc(NC(=O)CCCN(C)C)cc3C(=O)N([C@@H](C)CO)C[C@@H]2C)cc1	-14.2	-23.4
CC(C)C(=O)Nc1ccc2c(c1)C(=O)N(C)[C@H]1CC[C@@H](CC(=O)NCC3CC3)O[C@@H]1CO2	-0.8	4.1
C[C@@H]1CN([C@@H](C)CO)C(=O)CCCn2nncc2CO[C@H]1CN(C)S(=O)(=O)c1ccc(Oc2ccccc2)cc1	1.4	10.1
CCC(=O)N1C[C@H](C)[C@@H](OC)CN(C)C(=O)c2cc(NC(=O)COC)ccc2OC[C@H]1C	24.0	14.8
C[C@H]1CN([C@@H](C)CO)S(=O)(=O)c2ccc(C#CC3CCCC3)cc2O[C@@H]1CN(C)C(=O)C1CC1	-16.6	-15.6
CO[C@H]1CN(C)C(=O)c2ccc(NC(C)=O)cc2OC[C@@H](C)N(C(=O)CN2CCOCC2)C[C@@H]1C	29.8	9.7
Cc1ccccc1-c1ccc2c(c1)O[C@@H](CN(C)Cc1ccncc1)[C@@H](C)CN([C@H](C)CO)S2(=O)=O	u	x
COc1ccc(S(=O)(=O)Nc2ccc3c(c2)C(=O)N([C@@H](C)CO)C[C@H](C)[C@H](CN(C)C(=O)NC2CCCCC2)OCCCC[C@H](C)O3)cc1	u	x
C[C@H]1CN([C@@H](C)CO)C(=O)c2cc(NC(=O)NC3CCCCC3)ccc2O[C@@H]1CN(C)C(=O)Nc1cccc2ccccc12	21.5	17.0
C[C@H]1CN([C@@H](C)CO)C(=O)c2cccc(NC(=O)c3ccncc3)c2O[C@@H]1CN(C)CC1CC1	12.9	0.9
COc1ccccc1-c1ccc([C@H]2[C@H]3CN(C(=O)c4cccnc4)CCCCN3[C@H]2CO)cc1	-6.2	-3.3
CC(=O)NC[C@@H]1[C@@H](c2ccc(-c3ccccc3)cc2)[C@H](CO)N1C(=O)C1CC1	2.1	3.9
CN1C(=O)c2cc(NC(=O)c3ccccc3)ccc2OC[C@@H]2O[C@H](CC(=O)NC3CCCC3)CC[C@H]21	6.0	5.7
C=CC[C@]12N=C(c3ccc(OCCCO)cc3)O[C@H]1c1ccccc1CN(C(=O)c1ccccc1)C2=O	u	x
COCC(=O)N1CC(=O)N2[C@@H](CO)[C@@H](c3ccc(C#CC(C)C)cc3)[C@@H]2C1	9.5	8.2
CO[C@H]1CN(C)C(=O)c2cc(NC(=O)c3nc4ccccc4s3)ccc2OC[C@H](C)NC[C@@H]1C	-15.1	-10.4
CN1CCN(C(=O)C[C@H]2CC[C@@H]3[C@@H](COc4ccc(NC(=O)C5CC5)cc4C(=O)N3C)O2)CC1	12.2	6.3
CO[C@@H]1CN(C)C(=O)c2cc(NC(C)=O)ccc2OC[C@@H](C)N(CCc2ccccc2)C[C@H]1C	-0.1	-3.3
C[C@H]1CN([C@@H](C)CO)C(=O)c2cc(NC(=O)CCCN(C)C)ccc2O[C@@H]1CN(C)CC1CCCCC1	2.0	-3.0
CC(=O)N(C)C[C@@H]1Oc2cc(C3=CCCC3)ccc2S(=O)(=O)N([C@@H](C)CO)C[C@@H]1C	0.0	-1.6
CO[C@@H]1CN(C)C(=O)c2ccc(NC(=O)c3cnccn3)cc2OC[C@H](C)N(C(C)=O)C[C@H]1C	0.4	-3.6
C[C@@H]1CCCCO[C@H](CN(C)S(C)(=O)=O)[C@H](C)CN([C@@H](C)CO)C(=O)c2cc(NC(=O)c3ccccc3)ccc2O1	-2.9	12.3
O=C(OC(C(=O)NCc1ccccc1)c1cccs1)c1ccccc1 (stereo unspecified)	9.0	4.1
C[C@@H]1CCCCO[C@H](CN(C)C(=O)NC2CCCCC2)[C@H](C)CN([C@H](C)CO)C(=O)c2cc(NC(=O)NC3CCCCC3)ccc2O1	u	x
CCC(=O)N1[C@@H]2c3ccc(/C=C/c4ccccc4)c(=O)n3C[C@H]1[C@H](CO)[C@H]2C(=O)N1CCOCC1	2.9	10.6
O=S(=O)(c1cccc(Cl)c1)N1[C@@H]2CNC[C@H]1C2c1ccc(-c2ccncc2)cc1 (stereo partly specified)	u	-5.7
CNC[C@@H]1Oc2ccc(NC(=O)Cc3cn(C)c4ccccc34)cc2CC(=O)N([C@@H](C)CO)C[C@H]1C	2.9	7.3
COc1ccc(S(=O)(=O)Nc2ccc3c(c2)C(=O)N([C@@H](C)CO)C[C@H](C)[C@H](CN(C)S(C)(=O)=O)O3)cc1	7.0	3.2
C[C@@H]1CCCCO[C@@H](CN(C)Cc2ccc(C(F)(F)F)cc2)[C@H](C)CN([C@H](C)CO)C(=O)c2cc(NS(=O)(=O)c3cccs3)ccc2O1	u	x
CO[C@@H]1CN(C)C(=O)c2ccc(NC(=O)c3ccc(F)cc3)cc2OC[C@@H](C)N(C(=O)c2ccc(F)cc2)C[C@H]1C	-9.3	3.5
C[C@@H]1CCCCO[C@H](CN(C)C(=O)Nc2ccccc2)[C@H](C)CN([C@@H](C)CO)C(=O)c2cc(NC(=O)NC3CCCCC3)ccc2O1	16.8	12.2
CC(=O)N(C)C[C@@H]1Oc2cc(C#C[C@H](C)O)ccc2S(=O)(=O)N([C@@H](C)CO)C[C@@H]1C	5.7	-1.4
CO[C@@H]1CN(C)C(=O)c2cc(NC(=O)C3CCCC3)ccc2OC[C@@H](C)N(C)C[C@@H]1C	2.9	2.4
C[C@H](CO)N1C[C@H](C)[C@H](CN(C)C(=O)[C@H](Cc2ccccc2)N(C)C)OCc2ccccc2-c2c(n(C)c3ccccc23)C1=O	u	x

Copied from the list:
Under Vaccinia stage Venus, CCC(=O)N1[C@@H]2c3ccc(/C=C/c4ccccc4)c(=O)n3C[C@H]1[C@H](CO)[C@H]2C(=O)N1CCOCC1 reads 10.6
Under Vaccinia stage Venus, O=C(OC(C(=O)NCc1ccccc1)c1cccs1)c1ccccc1 (stereo unspecified) reads 4.1

Profiles as entered above.
O=C(OC(C(=O)NCc1ccccc1)c1cccs1)c1ccccc1 (stereo unspecified) reads Vaccinia stage: 9.0; Vaccinia stage Venus: 4.1
CO[C@@H]1CN(C)C(=O)c2cc(NC(=O)C3CCCC3)ccc2OC[C@@H](C)N(C)C[C@@H]1C reads Vaccinia stage: 2.9; Vaccinia stage Venus: 2.4
CN1CCN(C(=O)C[C@H]2CC[C@@H]3[C@@H](COc4ccc(NC(=O)C5CC5)cc4C(=O)N3C)O2)CC1 reads Vaccinia stage: 12.2; Vaccinia stage Venus: 6.3

Remaining list, next part
SMILES	Vaccinia stage	Vaccinia stage Venus
C[C@@H]1CN([C@H](C)CO)C(=O)c2cc(C#C[C@@H](C)O)cnc2O[C@H]1CN(C)C(=O)Nc1ccc(C(F)(F)F)cc1	-2.9	1.1
C[C@@H]1CCCCO[C@H](CN(C)Cc2ccccc2)[C@H](C)CN([C@H](C)CO)C(=O)c2cc(NS(=O)(=O)c3cn(C)cn3)ccc2O1	19.5	7.2
COc1ccc(CN(C)C[C@@H]2Oc3ccc(NC(=O)C4CC4)cc3CC(=O)N([C@@H](C)CO)C[C@@H]2C)cc1	-7.7	-9.7
C[C@H]1CN([C@@H](C)CO)C(=O)Cc2cc(NC(=O)CCC(F)(F)F)ccc2O[C@@H]1CN(C)C(=O)Nc1cccc2ccccc12	12.8	21.6
C[C@@H]1CN([C@H](C)CO)C(=O)Cc2cc(NS(=O)(=O)c3cn(C)cn3)ccc2O[C@H]1CN(C)C(=O)Nc1ccccc1	17.5	8.6
CCC(=O)Nc1ccc2c(c1)OC[C@H](C)N(CC1CCOCC1)C[C@@H](C)[C@@H](OC)CN(C)C2=O	0.6	0.6
C[C@@H]1CN([C@@H](C)CO)C(=O)c2cc(NC(=O)c3ccncc3)ccc2O[C@H]1CN(C)C	-4.3	-10.2
Cc1noc(C)c1S(=O)(=O)Nc1ccc2c(c1)C(=O)N([C@H](C)CO)C[C@H](C)[C@@H](CN(C)C(=O)CCCN(C)C)OCCCC[C@@H](C)O2	24.4	18.7
COc1ccc(CN(C)C[C@H]2OCCCC[C@H](C)Oc3ccc(NS(=O)(=O)c4cn(C)cn4)cc3C(=O)N([C@H](C)CO)C[C@@H]2C)cc1	9.2	0.1
CC=Cc1ccc2n(c1=O)C[C@@H]1[C@@H](CO)[C@H](C(=O)NCC3CC3)N(CCC)[C@H]21 (mixture of isomers)	-5.3	1.2
O=C(C[C@H]1C[C@@H]2c3cc(NC(=O)Nc4ccc(C(F)(F)F)cc4)ccc3O[C@@H]2[C@H](CO)O1)NCc1ccccn1	-0.6	-2.3
C[C@@H]1CN([C@H](C)CO)C(=O)c2cc(N(C)C)ccc2O[C@H]1CN(C)Cc1ccncc1	5.6	-5.9
CN(C)C(=O)C[C@@H]1CC[C@@H]2[C@@H](COc3ccc(NC(=O)NCc4ccccc4)cc3C(=O)N2C)O1	2.4	6.3
COCC#Cc1ccc2c(c1)O[C@@H](CN(C)CC1CCCC1)[C@H](C)CN([C@@H](C)CO)S2(=O)=O	-28.2	-19.0
CN1C(=O)c2cc(NC(=O)c3cc(F)cc(F)c3)ccc2OC[C@H]2O[C@@H](CC(=O)O)CC[C@H]21	3.5	9.3
CC(C)CC#Cc1ccc2c(c1)O[C@@H](CN(C)C(=O)Nc1ccccc1F)[C@H](C)CN([C@@H](C)CO)S2(=O)=O	u	x
CC(C)NC(=O)N[C@H]1CC[C@@H](CC(=O)NCCCN(C)C)O[C@@H]1CO	12.7	9.4
COCC(=O)N(C[C@H]1N[C@H](CO)[C@H]1c1ccc(-c2cccnc2)cc1)C(C)C	2.3	7.2
